Anaer choline gr: choline-fed anaerobic bacterial growth inhibition. hit rate 0.2% among 55,000. calls only. Gram-negative bacterium anaerobic choline minimal medium, absorbance growth; active compounds read low; many inactives read as strong as hits in the columns shown. AID 1963822;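 active means growth z-score on choline under -2 at 7 or 20 h with little or no fall on glycerol, limits in tiers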;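 further: stock transfer was 300 nL into about 50 µL; the organism is E. coli; final concentration not given here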
Anaer choline gr early: further read-out of Anaer choline gr, marked with its call; z-score; measured here: choline growth z-score, timepoint 1;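 score of optical density at 7 h as mean of two plates; lower means less growth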
Numbers without * were called inactive; i = inactive; + = active, no number; & = joins results of further samples. Some of the compounds tested (hit frequency here may not be typical).

SMILES | Anaer choline gr | Anaer choline gr early
CC(C)Cc1ccc(C(C)C(=O)O)cc1 (configuration not stated) | i | -1.32&0.22&0.18
Cc1nc2ccccn2c(=O)c1Cc1nnc(SCC(=O)NCc2nc3ccccc3[nH]2)n1C | i | -1.21
CC1(C)OC(=O)C(OCC2CC2)=C1c1ccc(S(C)(=O)=O)cc1 | i | 0.7
CC1=NN(c2ccccc2)C(=O)C1 | i | 0.64&1.45
CS(=O)(=O)c1ccc(-n2nc(C(F)(F)F)cc2-c2ccc(F)cc2)cc1 | i | 0.2
COc1cc(-c2noc(Cn3ccnc3)n2)cc(OC)c1OC | i | -0.55
CN(C)C/C=C(/c1ccc(Br)cc1)c1cccnc1 | i | 0.67&-0.34
CN1CCC(=C2c3ccccc3CCc3sccc32)CC1 | i | -0.7&-1.12&0.24
CN(C)CCCSc1ccccc1NC(=O)C=Cc1ccccc1 | i | 0.6
CCN(CC)C(=O)Nc1ccc(OCC(O)CNC(C)(C)C)c(C(C)=O)c1 (configuration not stated) | i | 0.29
COc1ccc(CN(CCN(C)C)c2ccccn2)cc1 | i | 0.28&-0.26&0.78&0.18
O=C(Cn1ccnc1[N+](=O)[O-])NCCO | i | -0.09
Cc1[nH]c(C(=O)N2CCCC(C(=O)N3CCN(c4ccccc4)CC3)C2)c(C)c1C(=O)OC(C)C (configuration not stated) | i | -1.16
CC(C)CCNC(=O)c1cn(C)nc1S(=O)(=O)N1CCSCC1 | i | 0.42
C[C@]12CC3CC(N)(C1)C[C@@](C)(C3)C2 | i | -0.51&0.76
CCN(CC)C(=O)c1cc2c(s1)CCC(C(=O)N1CCC(C)CC1)C2 (configuration not stated) | i | 0.16
Nc1nc(CC(=O)Nc2ccc(CCNC[C@H](O)c3ccccc3)cc2)cs1 | i | 0.66
O=C1N(c2ccccc2)c2ccccc2C1(Cc1ccncc1)Cc1ccncc1 | i | -0.13&-0.04
CCc1noc2nc(C)nc(N3CCCC(C(=O)NCCN4CCCC4)C3)c12 (configuration not stated) | i | 0.16
O=C(OC1CC2CC3C[C@@H](C1)N2CC3=O)c1c[nH]c2ccccc12 (some centres not stated) | i | -0.53
COc1ccccc1OCC(O)COC(N)=O (configuration not stated) | i | -0.41
CC(C)n1cnc2c(NCCc3ccc(O)cc3)nc(-c3csc4ccccc34)nc21 | i | 1.29
Cc1cc2c(s1)Nc1ccccc1N=C2N1CCN(C)CC1 | i | 0.47&0.13&0.48
CN(C)CCCN1c2ccccc2Sc2ccccc21 | i | -1.35&-2.19
Cc1cc(N2CCOCC2)nc(N2CCN(S(=O)(=O)c3cc(C(C)C)ccc3C)CC2)n1 | i | 0.98

Part of the list above in order of SMILES length, lowest first:
SMILES | Anaer choline gr | Anaer choline gr early
CN(C)CCCN1c2ccccc2Sc2ccccc21 | i | -1.35&-2.19
COc1ccc(CN(CCN(C)C)c2ccccn2)cc1 | i | 0.28&-0.26&0.78&0.18
CN1CCC(=C2c3ccccc3CCc3sccc32)CC1 | i | -0.7&-1.12&0.24
CN(C)C/C=C(/c1ccc(Br)cc1)c1cccnc1 | i | 0.67&-0.34
CCc1noc2nc(C)nc(N3CCCC(C(=O)NCCN4CCCC4)C3)c12 (configuration not stated) | i | 0.16
Nc1nc(CC(=O)Nc2ccc(CCNC[C@H](O)c3ccccc3)cc2)cs1 | i | 0.66
CS(=O)(=O)c1ccc(-n2nc(C(F)(F)F)cc2-c2ccc(F)cc2)cc1 | i | 0.2

New compounds follow
SMILES | Anaer choline gr | Anaer choline gr early
CC1CCN(S(=O)(=O)c2cccn(CC#N)c2=O)CC1 | i | 0.93
N=C(N=C(N)N)N1CCOCC1 | i | -1.31&-0.22&-0.17
CC(=O)O[C@]1(C(C)=O)CC[C@H]2[C@@H]3C=C(Cl)C4=CC(=O)[C@@H]5C[C@@H]5[C@]4(C)[C@H]3CC[C@@]21C | i | -0.45&-0.13
O=C(O)CCC/C=C\C[C@H]1[C@@H](O)CC(=O)[C@@H]1/C=C/[C@@H](O)COc1cccc(C(F)(F)F)c1 | i | 0.76
O=C(O)CCC/C=C/C[C@@H]1[C@@H](CC[C@@H](O)CCc2ccccc2)[C@H](O)C[C@@H]1O | i | 0.53
COc1ccc(Cc2nnc3sc(-c4ccc(N(C)C)cc4)nn23)cc1 | i | 0.49
Cc1coc2c1C(=O)C(=O)c1c-2ccc2c1CCCC2(C)C | i | 1.02&-0.84
C#C[C@]1(OC(C)=O)CC[C@H]2[C@@H]3CCC4=CC(=NO)CC[C@@H]4[C@H]3CC[C@@]21CC | i | 0.55
OC1(c2ccc(Cl)c(C(F)(F)F)c2)CCN(CCCC(c2ccc(F)cc2)c2ccc(F)cc2)CC1 | i | -2.01&-1.66
COc1cc(Nc2c(C#N)cnc3cc(OCCCN4CCN(C)CC4)c(OC)cc23)c(Cl)cc1Cl | i | -0.06
COc1nc(C)nc(Cl)c1NC1=NCCN1 | i | 0.12&0.59&-0.76&0.37
NC(=O)n1c(O)c(C(=O)c2cccs2)c2cc(Cl)ccc21 | i | 0.72
CC(Nc1ncnc2nc[nH]c12)c1cc2cccc(Cl)c2c(=O)n1-c1ccccc1 (configuration not stated) | i | 0.37
O=C1NCC2(CCN(CCc3ccccc3)CC2)O1 | i | 0.03&0.64&0.5
O=C(O)CCC/C=C\C[C@H]1[C@@H](O)CC(=O)[C@@H]1/C=C/[C@@H](O)CCc1ccccc1 | i | -1.49
COc1cc2nc(N3CCN(C(=O)C4COc5ccccc5O4)CC3)nc(N)c2cc1OC (configuration not stated) | i | 0.65&0.15&-0.93
CCCOc1ccccc1-c1nc2n[nH]nc2c(=O)[nH]1 | i | 0.24&0.66&0.19&-1.14&1.11
CC[C@]1(O)CC2CN(CCc3c([nH]c4ccccc34)[C@@](C(=O)OC)(c3cc4c(cc3OC)N(C)[C@H]3[C@@](O)(C(=O)OC)[C@H](OC(C)=O)[C@]5(CC)C=CCN6CC[C@]43[C@@H]65)C2)C1 (some centres not stated) | i | 0.36
O=C(O)CCC/C=C\C[C@@H]1[C@@H](/C=C/C(=O)COc2cccc(C(F)(F)F)c2)[C@H](O)C[C@@H]1O | i | 0.82
NS(=O)(=O)c1cc2c(cc1C(F)(F)F)NC(Cc1ccccc1)NS2(=O)=O (configuration not stated) | i | 0.66
CCOC(=O)C(CCc1ccccc1)NC1CSC(c2cccs2)CN(CC(=O)O)C1=O (configuration not stated) | i | 0.32
O=C(c1ccc2c(c1)CCN2C(=O)C1CCC1)N1CCCC1 | i | 1.11
O=C(O)COC(=O)Cc1ccccc1Nc1c(Cl)cccc1Cl | i | 0.66&0.35
CC1CCCN(S(=O)(=O)c2cc(C(=O)NCCC3=CCCCC3)n(C)c2)C1 (configuration not stated) | i | -1.26
O=C1NC(=O)[C@@]2(CCOc3ccc(F)cc32)N1 | i | 0.92

Profiles, looked up by structure. Screens in order: Anaer choline gr | Anaer choline gr early
Shown for `CC1CCCN(S(=O)(=O)c2cc(C(=O)NCCC3=CCCCC3)n(C)c2)C1` (configuration not stated) → i | -1.26
Shown for `NS(=O)(=O)c1cc2c(cc1C(F)(F)F)NC(Cc1ccccc1)NS2(=O)=O` (configuration not stated) → i | 0.66
Shown for `N=C(N=C(N)N)N1CCOCC1` → i | -1.31&-0.22&-0.17
Shown for `NC(=O)n1c(O)c(C(=O)c2cccs2)c2cc(Cl)ccc21` → i | 0.72
Shown for `C#C[C@]1(OC(C)=O)CC[C@H]2[C@@H]3CCC4=CC(=NO)CC[C@@H]4[C@H]3CC[C@@]21CC` → i | 0.55

More results.
SMILES | Anaer choline gr | Anaer choline gr early
Cc1nnc(NS(=O)(=O)c2ccc(N)cc2)s1 | i | 0.07
CCC[C@H](N[C@@H](C)C(=O)N1[C@H](C(=O)O)C[C@@H]2CCCC[C@@H]21)C(=O)OCC | i | 0.15
Nc1nccs1 | i | 0.59
CCCCn1nc2c(S(=O)(=O)N3CCOCC3)cccn2c1=O | i | 0.13
O=c1cc[nH]c(=O)[nH]1 | i | 0.27&0.25
c1ccc2c(CC3=NCCN3)cccc2c1 | i | 0.32&-0.29&0.22
C[C@H]1COc2c(N3CCN(C)CC3)c(F)cc3c(=O)c(C(=O)O)cn1c23 | i | -2.54
CN(CC1(C)CCOCC1)C(=O)NCc1ccco1 | i | -0.38
CCCCCCC/C=C\CCCCCCCCC(=O)O | i | 0.49
COc1cc(N)c(Cl)cc1C(=O)NC1CCN(CCCOc2ccc(F)cc2)CC1OC (configuration not stated) | i | -0.91
Cc1onc(-c2ccccc2Cl)c1C(=O)N[C@@H]1C(=O)N2[C@@H]1SC(C)(C)[C@@H]2C(=O)O | + | -2.3*
CC(=O)n1nc(-c2ccccc2Cl)nc1N | i | -0.18
CCN(CC)CCCCNc1ncc2cc(-c3c(Cl)cccc3Cl)c(NC(=O)NC(C)(C)C)nc2n1 | i | -1.69
COc1ccc(N2CCN(S(=O)(=O)c3cc(-c4csc(C)n4)sc3C)CC2)cc1 | i | 0.49
CC(=O)[C@H]1CC[C@H]2[C@@H]3C[C@H](C)C4=CC(=O)CC[C@]4(C)[C@H]3[C@@H](O)C[C@]12C | i | 0.38
CCCCNC(=O)Cn1nc2c(N3CCSCC3)nccn2c1=O | i | 0.31
O=C(O)CCC/C=C\C[C@H]1C(=O)C[C@@H](O)[C@@H]1/C=C/[C@@H](O)CCc1ccccc1 | i | 1.21&0.34
O=C1CC(c2cc(F)cc(F)c2)Cc2nc(N3CCN(c4ccc(F)cc4)CC3)ncc21 (configuration not stated) | i | 1.48
CC(Oc1c(Cl)cccc1Cl)C1=NCCN1 (configuration not stated) | i | -0.53&0.08&-0.07
C[C@]12CC[C@H]3[C@@H](CCC4=CC(=O)CC[C@@]43C)[C@@H]1CC[C@@H]2C(=O)CO | i | 0.1
Nc1cc(-c2ccncc2)c[nH]c1=O | i | 0.52&0.5
CC(C)Cc1ccc([C@H](C)C(=O)O)cc1 | i | 0.31&0.28
CCOc1ccc(/C=C/c2nn3c(-c4cccnc4)nnc3s2)cc1 | i | 0.08
O=C(O)CN1C(=O)c2cccc3cccc(c23)C1=O | i | 0.01&0.67
